Screens deposited in PubChem by National Center for Advancing Translational Sciences (NCATS).
Tau fil binding – binders of human tau filaments. Potency, µM (doses to about 57.1 µM), inactives show at the highest dose activity change, negative = inhibition. P10636. 2% of 71,000 active. recombinant tau filaments, thioflavin S fluorescence, 15 h; filaments grown with octadecylsulfate alongside compound;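 note: potency is the fitted concentration of half-maximal effect; % is set by controls: 0 for no effect and ±100 for the full control effect; actives lower thioflavin S fluorescence by blocking filaments or displacing dye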
Target sequence (P10636 whole entry, looked up): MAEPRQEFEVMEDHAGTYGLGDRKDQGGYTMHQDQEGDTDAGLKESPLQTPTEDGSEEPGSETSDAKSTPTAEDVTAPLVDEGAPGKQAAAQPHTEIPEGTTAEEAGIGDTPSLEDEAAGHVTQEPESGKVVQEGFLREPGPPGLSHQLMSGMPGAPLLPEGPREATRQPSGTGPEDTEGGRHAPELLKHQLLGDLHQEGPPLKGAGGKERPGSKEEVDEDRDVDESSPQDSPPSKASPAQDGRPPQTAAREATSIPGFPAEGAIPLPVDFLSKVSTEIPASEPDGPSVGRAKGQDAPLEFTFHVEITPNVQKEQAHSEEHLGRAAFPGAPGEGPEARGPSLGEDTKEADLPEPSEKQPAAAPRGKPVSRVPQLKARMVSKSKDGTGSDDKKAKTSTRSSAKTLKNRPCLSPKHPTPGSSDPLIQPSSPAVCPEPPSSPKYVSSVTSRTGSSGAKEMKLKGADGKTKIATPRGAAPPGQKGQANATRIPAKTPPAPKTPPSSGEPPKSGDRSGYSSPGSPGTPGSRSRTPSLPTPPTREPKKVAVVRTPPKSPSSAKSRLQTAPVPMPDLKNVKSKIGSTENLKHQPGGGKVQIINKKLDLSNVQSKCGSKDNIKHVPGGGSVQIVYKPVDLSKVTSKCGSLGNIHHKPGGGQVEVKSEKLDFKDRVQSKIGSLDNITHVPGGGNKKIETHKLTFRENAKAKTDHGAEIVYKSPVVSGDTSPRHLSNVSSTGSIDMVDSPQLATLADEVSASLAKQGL
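Thioflavine S fluorescence (ex 450, em 510 nm) reports filaments formed from 1 uM human tau plus 30 uM ODS over 15 h at 37 C (10 mM HEPES pH 7.4, 100 mM NaCl, 5 mM DTT); compounds displacing dye or blocking filaments lower signal.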
Casp7 inh – caspase-7 (human) inhibition, allosteric or competitive; 0.02% of 75,000 active; P55210; Potency, µM (titrated, usually from 57.5 µM), for the others: top-dose activity change, negative = inhibition, actives largely listed as inhibitors; AID 889; recombinant caspase-7, Ac-DEVD-AFC fluorescence rate; active = well fitted inhibition curve with a large enough effect in the main read-out, with a control signal flat, not every such curve was filed as active; inconclusive = small, poorly fitted or top-dose-only effect, or a change in a side signal; note: potency is the fitted concentration of half-maximal effect; % of control where 0% means no effect
Target sequence (P55210 24-198 limits assumed): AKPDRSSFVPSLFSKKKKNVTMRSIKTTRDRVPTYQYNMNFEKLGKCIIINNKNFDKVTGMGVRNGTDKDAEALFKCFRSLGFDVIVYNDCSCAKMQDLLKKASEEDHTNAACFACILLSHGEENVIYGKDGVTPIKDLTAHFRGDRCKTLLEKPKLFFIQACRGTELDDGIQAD
Target sequence (P55210 207-303 limits assumed): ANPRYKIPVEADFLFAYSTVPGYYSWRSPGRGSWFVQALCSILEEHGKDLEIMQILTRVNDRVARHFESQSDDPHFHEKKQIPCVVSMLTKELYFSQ
Pol III holo inh – blocks replication by bacterial DNA polymerase III holoenzyme | reconstituted DNA polymerase III holoenzyme replication, biochemical | Potency, µM (top dose mostly 57.1 µM), inactives show top-dose activity change, negative = inhibition | 0.25% of 71,000 active | AID 603; note: potency is the fitted concentration of half-maximal effect; % is set by controls: 0 for no effect and ±100 for the full control effect
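Reconstituted *E. coli* holoenzyme (0.35 nM Pol III, 1 nM beta, 154 nM SSB, 2 nM primase) was preincubated with compound for 15 min at RT. Synthesis on 1.4 nM ssM13Gori ran 35 min, then was stopped with PicoGreen/EDTA and read as dsDNA fluorescence.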
HEK293 cAMP ctrl – parental HEK293 cAMP activation (counter-screen) | Potency, µM (doses to about 57.1 µM), for the others: at the highest dose activation, usual class: activators | AID 938 | 2.5% of 73,000 active | parental HEK293 CNG cAMP sensor, membrane potential fluorescence; note: potency is the fitted concentration of half-maximal effect; % of control where 0% means no effect; nearly all actives have a fitted effect of over 55% in size
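Parental HEK 293 cells stably expressing a cAMP-gated CNG channel were loaded with membrane potential dye containing 100 uM RO 20-1724 for 60 min. Compound added for 30 min; depolarization read as fluorescence intensity at 590 nm.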
BRCT inh green – inhibitors of human BRCA1 BRCT-phosphoprotein interaction (green fluorophore); P38398; BRCA1 BRCT-phosphopeptide binding, green fluorescence polarization; Potency, µM (titrated, usually from 76.9 µM), without a hit: at the highest dose activity change, negative = inhibition, usual class: inhibitors; 0.05% of 75,000 active;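 note: potency is the fitted concentration of half-maximal effect; plate controls were peptide without protein for full effect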
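Fluorescence polarization: His-tagged BRCT (~35 kDa BRCA1 C-terminus, 250 nM) bound to 100 nM fluorescein-labeled phosphorylated 10-aa BACH1 peptide, pH 7.3 phosphate buffer with DTT and Tween 20. Compounds incubated 12 min at room temperature; inhibition read as lowered polarization.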
Rhodamine autofl – compound fluoresces in the rhodamine spectral region; Rhodamine-region fluorescence, 547/598 nm, Tris buffer; hits give high values; max dye-equivalent concentration, M; 0.05% of 59,000 active; AID 594; in the data active = max dye-equivalent concentration above about 11 nM; inconclusive = between about 1.1 nM and that limit
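Read-out is relative fluorescence at 547 nm excitation and 598 nm emission, expressed as dye-equivalent concentration using rhodamine standards on every plate. Each compound was profiled across a concentration series after 15 min in 100 mM Tris, pH 8.0.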
Caspase-1 inhib – caspase-1 (human) inhibition, allosteric or competitive | Caspase-1 enzyme, Ac-WEHD-AFC fluorogenic rate | 0.03% of 75,000 active | Potency, µM (series often up to 57.5 µM), without a hit: at the highest dose activity change, negative = inhibition, hits mostly inhibitors | AID 900;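 note: potency is the fitted concentration of half-maximal effect; plate controls were vehicle for no effect and no substrate for full effect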
15-hLO inh – blocks human 15-lipoxygenase activity. P16050. purified 15hLO-1, xylenol orange hydroperoxide absorbance. Potency, µM (doses to about 57.1 µM), without a hit: at the top dose activity change, negative = inhibition, hits mostly inhibitors. 1.4% of 74,000 active; note: potency is the fitted concentration of half-maximal effect; % is set by controls: 0 for no effect and ±100 for the full control effect; nearly all actives have a fitted effect of over 55% in size
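Quantitative HTS in 25 mM Hepes pH 7.5 containing 0.01% Triton X-100: human 15hLO-1 at 40 nM, arachidonic acid at 50 uM, 6 min turnover. Product quantified via ferrous oxidation/xylenol orange, 573:405 nm absorbance ratio.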
BRCT inh red – disrupts BRCA1 BRCT binding to phosphoprotein, red fluorophore readout. P38398. BRCT-phosphopeptide binding, red fluorescence polarization. Potency, µM (series often up to 76.9 µM), for the others: top-dose activity change, negative = inhibition, hits mostly inhibitors. 0.03% of 75,000 active. AID 892; note: % is set by controls: 0 for no effect and ±100 for the full control effect
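Fluorescence polarization: 100 nM His-tagged BRCA1 BRCT with 100 nM TAMRA-labelled phospho-BACH1 decapeptide, phosphate buffer pH 7.3 with 150 mM NaCl, DTT, 0.01% Tween 20; 12 min RT. Binding inhibition seen as FP decrease.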
USP2a inh – USP2a (human) protease inhibition | USP2a enzymatic assay, qHTS inhibition | Potency, µM (doses to about 38.3 µM), inactives show top-dose activity change, negative = inhibition, hits mostly inhibitors | 0.1% of 60,000 active;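 note: potency is the fitted concentration of half-maximal effect; nearly all actives have a fitted effect of over 60% in size; plate controls were DMSO for no effect and NEM full inhibition control for full effect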
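Coupled readout: USP2-cleaved Ub-PLA2 (20nM final) turns over NBD C6-HPC (20uM final), Ex 460nm/Em 535nm after 2.5 h, time-zero read flagging artifacts. Enzyme (20nM final, pH 8.0 Tris) given 30 min RT with compound first; NEM defines full inhibition.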
Starred values were filed as active, the others as inactive; i = inactive; ? = inconclusive; nt = no result given; [ ] = remark or other dose. Unless noted, calls come from the whole dose curve; as a rule, active = well fitted curve in the direction sought with a large enough effect; inconclusive = small, poorly fitted or top-dose-only effect, or another doubt; inactive = no such curve, though single readings can be large; an effect the other way counts as inactive or inconclusive. Not all compounds are listed; the hit share may differ from the screen's.

SMILES	Tau fil binding	Casp7 inh	Pol III holo inh	HEK293 cAMP ctrl	BRCT inh green	Rhodamine autofl	Caspase-1 inhib	15-hLO inh	BRCT inh red	USP2a inh
c1ccc2c(c1)OCC(c1nn3c(Cn4nnc5ccccc54)nnc3s1)O2 (stereo unspecified)	-9.4%	-5.6%	-3.7%	12.4%	2.9%	i	-1.8%	?	-1.2%	53.8%[activator]
O=S(=O)(Nc1cccnc1)c1ccc2c(c1)OCCO2	-15.6%	-2.6%	-1.3%	-0.6%	-2.2%	i	-0.6%	7.6%	1.9%	-4.4%
CC1Cc2nc(SCC(=O)Nc3ccc4c(c3)OCO4)n(CCc3ccccc3)c(=O)c2S1 (stereo unspecified)	-3.9%	1.2%	1.1%	21.7%	0.9%	nt	-4.0%	3.8%	-1.4%	nt
O=C(Nc1ccccc1)c1cccc(-c2nnc(-c3ccccc3)o2)c1	149.1%	0.4%	-1.4%	31.6µM*	0.1%	i	-0.6%	-7.5%	-0.3%	-7.2%
O=C(O)c1cc(O)ccc1-c1ccc(O)cc1	-0.3%	1.6%	-2.0%	5.1%	-2.3%	i	1.0%	8.6%	-1.6%	-3.4%
CCCSCCCNC(=O)CC1Oc2ccccc2NC1=O (stereo unspecified)	-4.0%	0.2%	-3.8%	1.9%	-2.8%	nt	-2.2%	0.0%	-0.3%	nt
CN1CCN(c2nc3c(c(=O)n(C)c(=O)n3C)n2CCSc2nc3ccccc3s2)CC1	-17.5%	0.8%	-7.9%	15.8%	-5.3%	nt	2.1%	1.58µM*	-1.9%	nt
COc1ccccc1N1CCN(C(CNS(=O)(=O)c2ccc(C)cc2)c2cccnc2)CC1 (stereo unspecified)	-14.1%	-0.4%	-3.0%	6.2%	-1.6%	i	-3.3%	-9.4%	1.1%	27.5%
COc1ccc(OC)c(Nc2nc(-c3cccs3)cs2)c1	15.8µM*	-2.5%	-1.0%	-10.2%	-0.6%	i	-1.4%	-15.4%	0.7%	15.8%
O=C1CC(N2CCC(c3nc4ccccc4[nH]3)CC2)C(=O)N1Cc1ccccc1 (stereo unspecified)	3.6%	-2.0%	-1.5%	4.1%	1.3%	i	-0.1%	-0.2%	-1.1%	13.0%
CC(C)C(c1nnnn1Cc1ccccc1)N(Cc1ccco1)Cc1cccs1 (stereo unspecified)	-10.8%	-2.3%	-6.3%	11.5%	6.9%	i	-4.8%	-5.3%	0.1%	nt
N#CC1=C2SCN(Cc3ccccc3)CN2C(=O)CC1c1ccccc1F (stereo unspecified)	-18.7%	-12.5%	-7.0%	-3.8%	1.7%	nt	0.8%	?	-0.5%	nt
Cc1ccc(Nc2nnc(-c3ccc4c(c3)OCO4)o2)c(C)c1	16.8%[11.4 µM]	0.5%[11.5 µM]	12.5%[11.4 µM]	9.2%[11.4 µM]	1.1%[15.4 µM]	i	-1.6%[11.5 µM]	-23.5%[11.4 µM]	-2.9%[15.4 µM]	nt
COc1cccc(Cn2c(=O)c(C)nc3cnc(OC)nc32)c1	-1.0%	-3.1%	5.0%	?	-1.9%	i	-0.9%	6.3%	0.4%	71.1%[activator]
Cc1nc2ccc(NC(=O)NCc3ccco3)cc2s1	2.0%	1.7%	-6.1%	21.9%	-0.7%	i	-1.4%	-2.5%	-0.7%	-3.5%
CCOC(=O)N1CCC2(CC1)C(C#N)=C(N)Oc1c2c(C)nn1-c1cccc(Cl)c1	?	-4.1%	-2.0%	-5.8%	-0.6%	i	-1.4%	-18.5%	0.0%	21.8%
CCSCCOC(=O)C1=C(C)NC(=O)NC1c1cc(OC)ccc1OC (stereo unspecified)	12.6%	-6.0%	-4.1%	3.7%	-0.8%	nt	-5.2%	1.4%	0.5%	-5.6%
COc1ccccc1-c1cc(NCc2cnc(C)cn2)ncn1	-4.4%	-0.5%	2.7%	?	-3.0%	i	-0.3%	?	-0.4%	0.2%
Cc1ccc(-c2nn(-c3ccccc3)cc2CN(Cc2ccccc2)C(=O)CCC(=O)O)o1	4.6%	-3.4%	-7.0%	7.8%	-1.4%	i	-3.4%	-8.9%	-0.1%	12.2%
O=C(Nc1ccc2c(c1)OCCO2)c1ccncc1	-18.0%	-1.2%	-16.2%	10.0%	-0.4%	i	-2.3%	1.1%	-0.4%	-3.5%
COc1ccc(-c2nnc(COc3ccc4ccccc4c3)o2)cc1OC	69.5%[11.4 µM]	-2.9%	0.8%[11.4 µM]	3.98µM*	-0.3%	nt	-5.0%	-11.3%[11.4 µM]	-0.6%	40.6%[activator][7.66 µM]
CCCNC(=O)CCC(=O)Nc1ncc(-c2ccc(C)cc2)n1C	-3.6%	-2.6%	-0.1%	-9.1%	-4.2%	i	1.6%	18.3%	1.4%	0.0%
CNc1ncnc2ccc(-c3ccccc3CN(C)C)cc12	-19.7%	-7.2%	-10.3%	6.0%	0.7%	i	-3.3%	9.2%	2.4%	3.1%
Cc1cc(C(=O)NCCCN2CCCC2=O)cs1	13.7%	-2.0%	6.2%	0.1%	-0.3%	i	0.9%	-0.4%	1.0%	-0.2%
COc1ccccc1NC(=O)c1nnn(CC(=O)Nc2cccc(SC)c2)c1N	40.2%	0.9%	-0.8%	-5.5%	-0.4%	i	-1.7%	-4.2%	1.3%	25.7%
SMILES	Tau fil binding	Casp7 inh	Pol III holo inh	HEK293 cAMP ctrl	BRCT inh green	Rhodamine autofl	Caspase-1 inhib	15-hLO inh	BRCT inh red	USP2a inh
CC(C)Nc1oc(Cc2cccc3ccccc23)nc1C#N	4.7%	-6.1%	6.4%	15.6%	0.7%	i	-2.8%	-11.6%	-0.4%	13.3%
O=C(NCc1ccc(F)cc1)c1noc2c1CCCC2	-1.7%	-0.1%	1.9%	7.1%	-2.0%	i	-3.5%	6.5%	1.1%	4.2%
Cc1cc(C)cc(OCc2nnc(SCC(=O)c3ccc(Br)cc3)o2)c1	79.3%	-1.9%	-6.1%	?	11.2%	i	-3.4%	-6.3%	-2.6%	-3.1%
O=C(NCc1ccc(Cl)cc1)c1ccc(COCC(F)(F)F)o1	12.3%	-1.5%	-7.1%	?	-1.3%	i	1.0%	9.9%	-1.2%	10.2%
COc1ccccc1Nc1nc2c(s1)CCC2	-13.3%	-3.9%	-5.4%	2.7%	1.4%	i	-1.9%	?	0.2%	22.4%
O=C(NCc1ccccc1)c1noc2c1CCCC2	-12.2%	-0.2%	3.8%	17.8%	-0.5%	i	-1.2%	1.6%	0.5%	5.0%
CC1CCN(C(=O)CSc2nnc(-c3ccc(S(=O)(=O)N4CCOCC4)cc3)n2C)CC1	3.3%	0.5%	3.3%	2.2%	-1.3%	i	-1.7%	-11.6%	-0.8%	-2.9%
Clc1ccccc1-c1nnc2sc(-c3cccs3)nn12	1.5%	-8.5%	-6.3%	10.4%	0.6%	i	-2.8%	-5.3%	-2.1%	41.2%[activator]
COc1ccc(Oc2ncc3nc(C)c(=O)n(Cc4cccc(OC)c4)c3n2)cc1	-29.1%	-3.7%	-12.0%	25.1µM*	0.5%	i	-4.7%	10.8%	1.5%	161.2%[activator]
CC(C)CNS(=O)(=O)c1ccc(C(=O)Nc2ccc3c(c2)OCCO3)cc1	-0.3%	-0.9%	-1.1%	-10.2%	-1.7%	i	2.2%	-0.2%	2.1%	3.1%
COc1ccccc1CNc1ncnc2ccc(-c3ccccc3CN(C)C)cc12	23.1%	0.1%	-6.8%	0.5%	-1.6%	i	-1.2%	-3.0%	1.3%	33.8%[activator]
CC(=O)NCc1ccc(C(=O)CSc2nnc(-c3ccncc3)n2Cc2ccccc2)o1	5.5%	-1.2%	-6.0%	3.9%	-0.5%	i	-1.2%	-27.2%	-2.2%	15.3%
CC(=O)N1C(=O)C2(Nc3ccccc3N2)c2ccccc21	-10.8%	0.6%	2.6%	-2.3%	-0.5%	nt	-1.2%	0.2%	-0.6%	0.0%
COc1cccc(-c2nc(N(C)C)c3ccccc3n2)c1	?	-10.1%	3.0%	26.2%	-1.9%	i	-9.8%	?	0.0%	?
Cc1ccc(-n2c(N)c(-c3nc4ccccc4n3C)sc2=S)cc1	135.5%	-3.4%	-3.8%	-15.7%	2.4%	i	-4.5%	3.16µM*	0.5%	18.4%
Cc1cc(NC(=O)CN2CCc3ccccc3C2)nc2c1c(=O)oc1ccccc12	33.4%	-3.7%	-2.5%	6.1%	1.1%	nt	-6.0%	-19.0%	1.3%	nt
Cc1ccc(C(=O)CSC2=C(C#N)C(c3ccco3)C3=C(CC(C)(C)CC3=O)N2)cc1 (stereo unspecified)	-13.9%	1.0%	0.1%	7.7%	-1.2%	i	-1.4%	-10.5%	0.0%	-0.1%
COC(=O)c1sc(NC(=O)c2ccc(Cn3cc(Cl)cn3)o2)c(C#N)c1C	-15.6%	-9.5%	-1.7%	-34.1%[inhibitor]	1.9%	i	-14.3%	?	-3.8%	24.5%
O=C(NCCCn1ccnc1)c1ccco1	2.2%	1.0%	-1.7%	?	-0.6%	i	-0.2%	-7.6%	-1.1%	0.6%
N=c1sc2ccccc2n1-c1ccccc1	-1.4%	-18.6%	-4.8%	11.2%	-0.6%	i	?	-9.1%	-1.3%	9.1%
COc1nc(NC(C)=O)nc(C)c1Br	-8.3%	1.2%	-7.1%	-21.0%	1.1%	nt	0.3%	4.1%	0.1%	-5.4%
